Bioassay records as filed in PubChem.
AF4-AF9 inh = inhibitors of AF4 peptide binding to AF9, primary screen, biochemical, AlphaScreen, biotin-AF4 peptide, FLAG-AF9, single point; Protein AF-9 (Homo sapiens), P42568; inhibition, % at 10 µM; 350,000 tested, 0.47% active;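 active means every replicate reaching a set inhibition limit, whatever the replicate mean, cut at about 25% in these data; inconclusive means mean inhibition reaches that limit but some replicates miss it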;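 further: 0% = plate neutral control median and 100% = total signal loss; the record names both 10 and 1 µM as test concentration; the first replicate is given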
Target sequence (P42568 whole entry, looked up): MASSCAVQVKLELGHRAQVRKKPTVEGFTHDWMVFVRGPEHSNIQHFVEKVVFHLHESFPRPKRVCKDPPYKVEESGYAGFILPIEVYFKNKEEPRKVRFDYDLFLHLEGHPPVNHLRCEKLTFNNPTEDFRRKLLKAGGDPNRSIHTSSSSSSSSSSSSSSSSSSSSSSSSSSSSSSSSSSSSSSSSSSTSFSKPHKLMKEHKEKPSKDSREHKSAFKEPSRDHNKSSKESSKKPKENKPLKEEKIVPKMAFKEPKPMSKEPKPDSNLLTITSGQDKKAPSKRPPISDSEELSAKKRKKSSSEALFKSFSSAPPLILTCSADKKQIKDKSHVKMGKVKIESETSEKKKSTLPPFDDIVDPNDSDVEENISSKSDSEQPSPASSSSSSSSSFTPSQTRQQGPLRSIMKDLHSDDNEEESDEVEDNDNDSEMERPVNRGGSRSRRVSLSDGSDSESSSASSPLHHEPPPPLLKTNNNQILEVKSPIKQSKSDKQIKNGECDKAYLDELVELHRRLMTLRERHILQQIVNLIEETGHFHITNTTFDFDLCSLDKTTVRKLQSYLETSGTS
LANA-H2B inh = blockers of LANA interaction with H2A/H2B – biochemical, FP readout, HTS, primary screen. Protein LANA1 (Human herpesvirus 8 type P (isolate GK18)), Q9QR71. cell-free LANA-H2A/H2B peptide, fluorescence polarization. inhibition, % (test concentration not listed). 320,000 tested, 0.6% active. AID 2629, 2010; in the data active means inhibition mostly above about 10%, no sharp cut-off; inactive means mostly below about 6.7%;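 further: stock transfer was 7.5 nL into about 10 µL; 0% = median of vehicle wells and 100% = median of positive control wells; one replicate is shown; the record names a cut of 25% in any replicate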
Beta cell apopt = inhibitors of cytokine-induced beta cell apoptosis, primary screen, luminescence. INS-1E cytokine-induced death, ATP luminescence, 48 h; percent of positive-control rescue, neutral wells zero. protection from apoptosis, % (test concentration not listed). 300,000 tested, 0.8% active;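 active means all replicates at 75% or more, or half of them and the mean; inconclusive means half reach 75% but not the mean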;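 further: 0% = cytokine-treated negative control wells and 100% = positive control rescue; higher means more ATP so stronger rescue from cytokine killing; wells of about 40 µL received 100 nL stock; the first replicate is given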
Vif A3G = inhibitors of Vif binding to APOBEC3G peptide, primary screen, biochemical, TR-FRET, GST-Vif 1-94, biotin-A3G peptide, dose response retest (AID 1117319). Virion infectivity factor (Human immunodeficiency virus type 1 group M subtype B (isolate …. TR-FRET GST-Vif / biotin-A3G peptide binding; higher % means a stronger effect; test concentration not given here; strong numbers were not always called active. one-dose inhibition, %; IC50 in µM for titrated hits. 260,000 tested, 0.57% active;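 active means above the screen mean plus three standard deviations and confirmed in dose response; inconclusive means results disagree or hit not tested in dose response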;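 further: Vif residues 1-94 fused to GST binding biotinylated APOBEC3G peptide 110-148; 0% = full assay without inhibitor and 100% = GST in place of GST-Vif; retest series ran down from 100 µM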
T cruzi inh = inhibitors of intracellular T. cruzi growth, primary screen, luminescence, NIH3T3 host cells; T. cruzi beta-gal in NIH3T3, 90 h; inhibition, % (no concentration beside the values); 300,000 tested, 1.4% active;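 active means mean inhibition across valid replicates above about 55%, limit read from the data; inconclusive means mean below that limit but half or more replicates reach it; inactive means mean below it, under half of replicates reach it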;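 further: signal also drops with host cell toxicity which is not excluded here; 0% = plate median of DMSO wells and 100% = zero luminescence signal; higher percent means less beta-gal luminescence so fewer parasites; stock transfer was 50 nL into about 50 µL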
Bfl-1 A1 inh = caspase 3/7 activation in MEF A1-2A-BIM cells, primary screen, A1 inhibitor project, cell-based, luminescence, HTS; Caspase-Glo 3/7 luminescence, 3 h; percent of clofoctol response, vehicle zero; caspase activation, % (concentration not given with the values); 330,000 tested, 0.066% active; AID 2462, 2010;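 active means over half of replicate activation scores above 10%, or exactly half above 10 with the replicate mean above 10; inconclusive means replicate mean below 10 yet half the replicates above 10; inactive means over half of replicates below 10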;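 further: wells of about 30 µL received 50 nL stock; many hits fall short of the cut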
Calb FLC = C. albicans growth inhibition with fluconazole, primary screen, CaCi-2 strain, Alamar Blue fluorescence. 300,000 tested, 0.57% active. AID 1979, 2009. C. albicans CaCi-2 (fluconazole-resistant clinical isolate) + fluconazole, 48 h. growth inhibition, % (no concentration beside the values);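 active means most replicates above 75%; inconclusive means exactly half above 75%; inactive means most below 75%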;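 further: all wells also contain fluconazole at 8 µg/ml as a sub-toxic cotreatment; 0% = median of DMSO wells and 100% = median of geldanamycin control wells; wells of about 8 µL received 7.5 nL stock; the first replicate is given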
RanGTP-Impb inh = inhibitors of RanGTP-importin-beta interaction, primary screen, biochemical, FRET, CFP-Ran, YFP-importin-beta, homogeneous. Ran GTPase (GTP-bound) - importin-beta complex. inhibition, % (concentration not given with the values). cell-free CFP-Ran/YFP-importin-beta FRET ratio. AID 2216, 2009. 300,000 tested, 1.1% active;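 active means most replicates above 15%; inconclusive means exactly half above 15%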;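 further: 0% = DMSO wells and 100% = Ran loaded with GDP instead of GTP; wells of about 40 µL received 100 nL stock; the first replicate is given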
Starred values were filed as active, the others as inactive; i = inactive; ? = inconclusive; / = not tested or not shown.

SMILES,AF4-AF9 inh,LANA-H2B inh,Beta cell apopt,Vif A3G,T cruzi inh,Bfl-1 A1 inh,Calb FLC,RanGTP-Impb inh
CN(C)C(=O)c1cc([N+](=O)[O-])cc([N+](=O)[O-])c1N(C)C,/,2.1,-5,1%,-1,0.3,-4,1.4
O=C(O)CNC(=O)c1ccc(N2CCOCC2)cc1[N+](=O)[O-],-0.7,0.8,-4,?,8,0.1,-11,0.3
CC(=O)OC1=Cc2c(ccc3ccc(=O)oc23)OC1(C)C,/,1.0,-3,5%,-4,-0.1,15,2.0
COc1cc(NC(=O)C23CC4CC(C2)CC(n2nnc(C)n2)(C4)C3)c(OC)cc1Cl,/,0.9,3,1%,-6,0.1,-4,-0.7
Cc1coc(NC(=O)CSc2nc(-c3ccncc3)cc(C(F)(F)F)c2C#N)n1,/,1.4,4,-17%,-5,0.5,0,-0.7
O=C(Nc1cccc2c1C(=O)NC2=O)c1ccccc1[N+](=O)[O-],-0.8,-4.8,-1,-3%,-27,0.2,-16,5.0
CCC(C)NC(=O)COCc1cc(-c2ccc3c(c2)OCO3)on1 (stereo not drawn),-2.2,-2.9,-4,/,-9,0.1,3,1.2
COc1ccc(C(=O)NCCNc2ccc([N+](=O)[O-])cc2)cc1OC,-2.6,2.9,-4,/,3,-0.1,-4,-2.5
O=C1Nc2ccccc2C1(O)C/C(=N/O)c1ccccc1 (stereo not drawn),0.7,1.7,0,14%,6,0.9,11,-0.5
COC(Cn1c(C)c(C(C)=O)c(C(C)=O)c1C)OC,/,4.1,6,7%,-7,-0.9,-10,4.4
O=c1cc(-c2ccco2)nc(SCc2cccc(Cl)c2)[nH]1,-6.5,4.4,-3,/,-7,2.2,4,0.8
COCCNC(=O)c1ccc(-n2c(SCc3ccncc3)nc3ccccc3c2=O)cc1,2.3,i,-1,22%,10,1.1,-6,-3.3
S=C1SCN(Cc2ccccc2)CN1Cc1ccccc1,0.5,/,/,5%,1,/,32,3.0
CCCn1c(O)c(N=NC(=O)CNC(=O)Cc2ccc(OC)cc2)c2ccccc21,1.2,-5.9,/,/,24,-0.3,-7,3.4
O=C(c1cccs1)N1CCN=C1SCc1ccccc1F,-2.5,-4.8,-17,2%,7,0.0,-11,1.3
CCOC(=O)CN(c1cc([N+](=O)[O-])ccc1OC)S(C)(=O)=O,-0.8,-4.1,1,3%,-8,0.1,1,4.5
CN(Cc1ccc2c(c1)OCCO2)C(=O)CSc1ncnc2sccc12,-1.7,3.4,-6,/,/,-2.7,/,/
COc1ccc(NC(=O)/C(=C/c2ccc(OC(C)=O)c(OC)c2)NC(C)=O)cc1,-0.9,-0.6,-3,?,8,-0.1,-2,5.4
COc1ccc(NC(=O)CC2C(=O)N(c3ccc(Cl)cc3)C(=S)N2CCc2ccncc2)cc1 (stereo not drawn),-10,-0.7,2,5%,11,1.3,-4,-0.9
COc1ccc(CCNC(=O)C2CCC(=O)N(C3CCCCCC3)C2)cc1 (stereo not drawn),2.8,-7.2,-3,/,-13,1.1,-18,2.8
CC(C)OC(=O)c1cc2c(ccn2C)n1CC(=O)N(Cc1ccccc1)c1ccccc1,13,-1.0,8,1%,51,1.2,4,6.4
Cc1ccc(NC(=S)N(C)N)cc1Cl,1.3,7.2,-8,31%,-7,-0.2,-3,6.0
CC(=O)Oc1ccccc1/C=C/c1ccc2ccccc2[n+]1C,6.4,-8.8,2,/,-6,-1.2,-12,5.5
COc1ccc([N+](=O)[O-])cc1NC(=O)CCSCCc1ccccn1,3.0,-1.0,-2,/,-10,0.4,3,3.7
CC1c2c([nH]c3ccccc23)CCC1C(=O)O (stereo not drawn),/,0.1,-3,-6%,-24,-0.4,-4,?
CC1CCN(CCc2nc3cc(NC(=O)COc4ccc([N+](=O)[O-])cc4)ccc3n2C)CC1,2.4,0.3,17,/,17,0.2,36,5.5
COC(C[C@H](O)CC(=O)[C@H](C)OCc1ccccc1)OC,/,/,/,23%,-15,/,-14,-2.8
CCN(CC)CCCNC(=O)c1ccc(S(=O)(=O)Nc2ccc(C)c(C)c2)cc1,5.0,-7.0,-1,/,/,0.4,/,/
COC(=O)Cc1c(C)nc2nc(-c3ccco3)[nH]n2c1=O,/,-1.8,-1,20%,4,-0.2,-6,2.6
Cc1cc(=O)n2[nH]cc(C(=O)O)c2n1,/,-3.1,-2,14%,-5,0.0,10,-6.3
O=C(O)c1ccc(NS(=O)(=O)c2ccc(NC(=O)c3ccccc3Cl)cc2)cc1,-5.7,2.2,-1,/,-7,-0.3,0,-1.5
Cn1nccc1C(=O)N1CCCC(C(=O)c2cccc3ccccc23)C1 (stereo not drawn),1.3,-0.1,0,1%,8,0.2,3,-0.2
COc1ccc(NC(=O)/C=C/c2cc(Br)ccc2OC)cc1,/,-2.3,0,0%,30,-0.3,2,-0.5
O=C(NCC1CCCO1)c1cc(C(=O)c2ccc(Cl)cc2Cl)c[nH]1 (stereo not drawn),-9.9,0.9,0,-5%,-20,0.0,17,-3.6
Cn1c(Cn2c(=O)sc3ccccc32)nnc1SCC(=O)Nc1cccc(F)c1,-3.4,-3.0,-10,?,/,0.5,/,/
CCOC(=O)NC(=O)CN1C(=O)NC(C)(c2ccccc2)C1=O (stereo not drawn),/,-3.5,-4,1%,-15,0.4,54,5.4
O=C(CCC(=O)Nc1ccccc1Cl)N/N=C/c1ccccc1,-2.3,-2.8,-2,10%,-1,0.3,3,-2.0
COc1ccc(NC(=O)CN(C)C(=O)CNC(=O)C2CCCCC2)cc1,-1.5,-8.7,-4,15%,-10,-0.4,17,4.9
CC1(C)C2CC=C(/C=N/NC(=O)c3ccc(O)cc3)C1C2 (stereo not drawn),/,-0.5,-1,15%,-7,-0.5,?,-0.6
COc1ccc(-c2cc(C(F)F)n3ncc(C(=O)N4CCN(C)CC4)c3n2)cc1,/,3.2,5,16%,5,-0.2,0,-0.8
COc1ccc(C(=O)CSc2nc3[nH]ncc3c(=O)[nH]2)cc1,-0.7,4.9,-2,-13%,-15,0.1,-3,2.6
O=C(Nc1ccc(F)cc1F)N1CCN(C/C=C/c2ccccc2)CC1,7.3,-4.9,2,-7%,-14,0.1,-13,-1.6
COc1cc2nc(NC(=O)c3ccco3)sc(=O)c2cc1OC,0.9,-11,0,-10%,-10,-0.1,-4,4.4
COC(=O)c1sc2nc(CN3CCN(c4ccc(OC)cc4)CC3)[nH]c(=O)c2c1C,1.2,4.2,1,/,-8,-0.5,10,3.0
COc1ccc(CNC(=S)Nc2cc(OC)ccc2OC)cc1,5.3,-4.5,-10,-8%,-1,0.3,1,1.4
CCC(=O)Nc1c2c(nn1-c1ccc(OC)cc1)CS(=O)C2 (stereo not drawn),-3.0,-7.6,-6,-4%,-10,0.5,-4,-6.6
CCC(C)(C)NC(=O)CN(C(=O)C(=O)Nc1ccc2c(c1)OCCO2)C1CC1,-6.9,1.4,-1,/,-3,0.3,-2,2.8
Cc1ccc(NC(=S)NC(=O)c2ccc(-c3ccccc3)cc2)cc1,/,1.4,2,-1%,-23,0.0,8,-0.7
CC(C)c1ccc(OCCCN2CCCC2)cc1,2.9,1.8,-1,-7%,14,0.4,-3,-1.1
Cc1ccnc(NC(=O)c2ccc([N+](=O)[O-])o2)c1,/,-1.1,-29,15%,18,0.1,12,-2.2

New compounds follow.
SMILES,AF4-AF9 inh,LANA-H2B inh,Beta cell apopt,Vif A3G,T cruzi inh,Bfl-1 A1 inh,Calb FLC,RanGTP-Impb inh
CCOc1ccc(NC(=S)NCc2ccc3c(c2)OCO3)cc1,/,-2.6,/,15%,14,-1.0,4,1.2
COc1ccc(OC)c(C(=O)NC(CC(N)=O)c2ccc(N3CCC(Cc4ccccc4)CC3)c([N+](=O)[O-])c2)c1 (stereo not drawn),4.7,-1.9,-9,/,-2,-0.8,-4,-1.9
CCc1ccc(CN2CCC(n3nccc3NC(=O)Cc3ccccc3)CC2)o1,1.0,-2.4,5,/,7,0.0,8,-2.9
Cc1cccn2c(CNCCc3ccco3)c(C(=O)N3CCOCC3)nc12,1.9,/,/,/,11,/,-8,-0.8
O=C(NNC(=O)c1cc([N+](=O)[O-])ccc1Cl)c1cccnc1,0.8,0.4,2,2%,/,-0.1,37,/
CCOC(=O)C(NC(=O)Nc1ccc(O)cc1)(c1ccccc1)C(F)(F)F (stereo not drawn),/,-4.4,/,?,7,-1.4,3,2.9
CC(=O)c1ccc(S(=O)(=O)Nc2cccc(-n3cnnn3)c2)cc1,1.0,-0.2,/,12µM*,-15,0.6,2,-1.3
CCCC(NC(=O)C(C)N1CCN(S(=O)(=O)c2ccccc2)CC1)c1ccccc1 (stereo not drawn),1.4,-1.1,0,10%,/,1.8,/,/
COC(=O)CCCCCNC(=S)Nc1ccc2[nH]c(=O)[nH]c2c1,-2.9,-5.3,2,-5%,-9,-2.4,5,1.8
COc1cc2cc(CN(CCO)S(=O)(=O)c3ccccc3)c(=O)[nH]c2cc1OC,/,3.4,-8,11%,2,-0.8,-1,1.7
COC(=O)COc1cccc(-n2cnnn2)c1,/,5.7,-1,4%,-4,?,-4,0.9
COc1cccc(C(=O)n2cnnc2N)c1OC,-1.7,-3.0,-6,0%,-4,1.1,-1,-5.0
CCOC(=O)CNC(=O)CSc1nc(-c2ccc(C)cc2)ns1,-1.1,-2.9,-2,-6%,-21,-0.2,-6,-1.9
C=CCN1CCN(C(CC(C)C)c2nnnn2CCOC)CC1 (stereo not drawn),/,0.9,-4,15%,-3,0.2,-14,5.3
CCOC(=O)c1cc(NC(=O)C2C3CCC(O3)C2C(=O)O)cc(C(=O)OCC)c1 (stereo not drawn),1.1,/,/,0%,-6,/,0,5.5
CCN(Cc1ccc(OC)c(COC)c1)CC1CCCN(CCc2cccc(F)c2)C1 (stereo not drawn),4.5,-7.6,/,/,46,0.1,-9,2.9
CCCn1c(SCC(=O)Nc2ccccc2N2CCOCC2)nc2c1c(=O)n(C)c(=O)n2C,/,-2.7,4,?,8,-0.5,7,3.3
CCn1c(Cc2ccc(OC)cc2)nnc1SCc1nc2ccccc2c(=O)[nH]1,-0.4,1.6,4,0%,1,0.1,1,2.4
O=C(CSc1n[nH]c(=O)n1-c1ccc2c(c1)OCCO2)Nc1ccccc1,-12,-0.5,0,-3%,-15,0.4,5,2.9
Cc1ccc2c(CNCc3ccco3)cc(=O)oc2c1,/,0.4,-10,10%,5,0.1,21,5.5
CCN(CC)Cc1c(O)ccc2c(=O)c(-c3ccccc3OC)coc12,0.4,-2.7,-1,/,-4,-0.4,-10,0.9
CCSS(=O)(=O)c1cccc2cccnc12,-0.6,-0.1,5,-15%,-53,0.2,-3,1.7
Cc1ccc(NC(=S)NC(=O)c2cncc(Br)c2)c(C)c1,-4.8,-4.6,-7,/,-9,0.5,6,2.5
